# Source: PubChem (National Center for Advancing Translational Sciences (NCATS))
# TRPV1 potentiator = potentiators of human vanilloid receptor 1 (TRPV1); AID 540277; potentiation, % at 8.33 µM; Q8NER1; TRPV1-expressing cells, Fluo-8 calcium influx, capsaicin EC20 potentiation; host cell line not named in the record; control for the full effect not named in the record; hit rate 0.02% among 320,000; active means potentiation above 80%; inconclusive means 30% to 80%; inactive means below 30%; further: 0% is about no effect
# Target sequence (Q8NER1 whole entry, looked up): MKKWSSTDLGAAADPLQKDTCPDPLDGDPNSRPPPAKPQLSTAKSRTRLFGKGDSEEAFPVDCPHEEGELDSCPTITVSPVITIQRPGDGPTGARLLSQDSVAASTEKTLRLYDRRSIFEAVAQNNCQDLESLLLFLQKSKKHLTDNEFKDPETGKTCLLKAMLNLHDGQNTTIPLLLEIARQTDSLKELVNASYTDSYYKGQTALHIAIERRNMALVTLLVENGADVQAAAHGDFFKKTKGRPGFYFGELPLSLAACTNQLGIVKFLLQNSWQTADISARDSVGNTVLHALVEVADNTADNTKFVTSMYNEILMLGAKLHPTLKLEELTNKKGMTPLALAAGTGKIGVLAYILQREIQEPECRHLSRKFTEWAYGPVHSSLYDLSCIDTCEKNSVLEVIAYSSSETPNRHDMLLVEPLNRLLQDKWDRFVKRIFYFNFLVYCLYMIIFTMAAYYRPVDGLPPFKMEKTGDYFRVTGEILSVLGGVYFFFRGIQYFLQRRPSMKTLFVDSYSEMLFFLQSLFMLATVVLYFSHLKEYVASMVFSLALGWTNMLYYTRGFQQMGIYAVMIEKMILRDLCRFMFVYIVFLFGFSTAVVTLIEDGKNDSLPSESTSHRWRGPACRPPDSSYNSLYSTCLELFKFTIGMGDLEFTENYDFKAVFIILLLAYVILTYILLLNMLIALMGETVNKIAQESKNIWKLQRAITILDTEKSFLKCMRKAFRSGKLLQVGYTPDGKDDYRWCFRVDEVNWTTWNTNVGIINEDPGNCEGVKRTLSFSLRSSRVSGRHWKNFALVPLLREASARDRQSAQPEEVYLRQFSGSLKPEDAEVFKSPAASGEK
#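 TRPV1-expressing cells were cultured overnight at 35.5C and loaded with Fluo-8 calcium dye for 40 to 90 min at room temperature. After a 10 s baseline, compound was added and calcium influx was read kinetically for 3 min (ex 480/em 520 nm).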
# ClpP mod = qHTS Assay for Activators of ClpP; Potency, µM (series often up to 57.5 µM), inactives show at the top dose activity change, negative = active; hit rate 1.9% among 340,000; purified B. subtilis ClpP, FRET peptide cleavage, 20 min; active = well fitted falling curve with a large enough effect; inconclusive = small, poorly fitted or top-dose-only effect; inactive = no such curve, though single readings can be large or run the other way; further: potency means the concentration at half of the fitted maximal effect; the source files actives as falling curves though it sought activators and does not explain the sign; nearly all actives have a fitted effect of over 65% in size; many hits overshoot -100%
# Target sequence (P80244 whole entry, looked up): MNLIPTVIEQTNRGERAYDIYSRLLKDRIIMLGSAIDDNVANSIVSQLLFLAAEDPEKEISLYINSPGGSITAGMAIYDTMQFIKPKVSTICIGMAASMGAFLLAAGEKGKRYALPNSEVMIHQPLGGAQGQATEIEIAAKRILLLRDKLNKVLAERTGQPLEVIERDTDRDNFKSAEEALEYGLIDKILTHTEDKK
#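 ClpP 10 microg/mL final, pH 8 Tris/KCl buffer with BSA, glycerol, Tween-20; compound pinned in; FRET-FV substrate; RT 20 min; Ex320/Em430; ΔFRET vs ADEP 5.8 microM, DMSO, no enzyme.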
# Menin-MLL FL inh = displaces fluorescein MLL peptide from human menin | Fluorescence polarization, fluorescein-MLL peptide displacement from menin | FP activity change, % at 61.4 µM | 290,000 tested, under 10 active | AID 1766; inconclusive = falling polarisation curve, or a change in total fluorescence; inactive = total fluorescence flat and polarisation flat or rising; no compound was filed as active; the % refers to the polarisation; negative = inhibition;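 further: % of control where 0% means no effect; inhibitors lower the polarisation; unlabelled MLL peptide was the positive control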
# gsp ag = activates gsp, the McCune-Albright syndrome mutation; gsp mutant cells, cAMP HTRF, 30 min; control for the full effect not named in the record; Potency, µM (highest dose often 76.9 µM), for inactives: at the highest dose activation (cAMP increase), hits mostly activators; hit rate 0.13% among 340,000; active = well fitted activation curve with a large enough effect; inconclusive = small, poorly fitted or top-dose-only effect, or another doubt; inactive = no such curve, though single readings can be large or run the other way; cell line not stated here;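 further: phosphodiesterase inhibitor Ro 20-1724 added with compounds to block cAMP breakdown; potency means the concentration at half of the fitted maximal effect; nearly all actives have a fitted effect of over 60% in size; about a fifth of the inactives were tested at one dose only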
#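 Cells stably selected in G418 were plated at 2000/well, grown 16-24 hr, then given compounds in DMSO with the PDE inhibitor […] (300 uM solution added) for 30 min at 37C; cAMP was read by HTRF.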
# gsp antagonist = antagonizes gsp, the McCune-Albright syndrome mutation. hit rate 0.4% among 340,000. gsp-mutant cells, cAMP HTRF, 30 min; control for the full effect not named in the record. Potency, µM (highest dose often 76.9 µM), for inactives: at the highest dose activity change, negative = inhibition, usual class: inhibitors; active = falling curve of any shape with a large fitted effect; inconclusive = falling curve, mostly with a smaller effect; inactive = flat or rising curve; cell line not stated here;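 further: intracellular cAMP measured with PDE inhibitor Ro 20-1724 present during compound exposure; potency means the concentration at half of the fitted maximal effect; on the % scale 0 is the no-effect control and ±100 the full control effect; nearly all actives have a fitted effect of over 65% in size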
#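 HTRF cAMP measurement after 30 min RT detection following 30 min, 37C compound treatment alongside […] (added as 300 uM solution) in G418-selected cells seeded at 2000/well and grown 16–24 h.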
# D2 PAM = positive allosteric modulators of human D2 dopamine receptor | P14416 | DiscoveRx D2 beta-arrestin cells, luminescence, 90 min; 100% = 57 uM dopamine signal | potentiation, % (test concentration not listed) | hit rate 0.23% among 360,000; active = potentiation of 50% or more; inconclusive = 30% to 50%; inactive = 30% or less;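 further: compound concentration not given in the record; tested on top of an EC20 dose of dopamine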
#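 PathHunter D2 cells, attached overnight at 37 deg C, received compound in DMSO plus dopamine at EC20 (50 nM final) for 90 min at 37 deg C. Beta-arrestin recruitment was read as luminescence after 1 h with detection reagent at ambient temperature.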
# Sfp inh = inhibitors of Bacillus subtilis Sfp phosphopantetheinyl transferase. Q9F4F7. hit rate 3.5% among 310,000. Biochemical Sfp PPTase activity, qHTS. AID 1490. Potency, µM, for inactives: max response, negative = inhibition, actives largely listed as inhibitors; active means well fitted inhibition curve with a large enough effect; inconclusive means small, poorly fitted or top-dose-only effect, or another doubt; inactive means no such curve, though single readings can be large or run the other way;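 further: the enzyme is Sfp with the accession as filed and its product quenches rhodamine fluorescence; potency means the concentration at half of the fitted maximal effect; 0% = enzyme reaction without inhibitor and -100% = no enzyme wells; top concentration of the series not given in the record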
#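 Buffer: 50 mM Hepes-Na pH 7.6, 10 mM MgCl2, 0.01% Nonidet P-40, 0.01% BSA. Enzyme 15 nM, pre-exposed to compound 15 min; substrates then added and fluorescence change tracked over 30 min.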
# Active calls of the source: *; ? = inconclusive; . = no result given; [ ] = dose if it differs, or a comment.
smiles	TRPV1 potentiator	D2 PAM	gsp antagonist	Menin-MLL FL inh	Sfp inh	gsp ag	ClpP mod
CC(=O)Nc1ccc(C2=NNC(=Nc3ccc(S(=O)(=O)N4CCOCC4)cc3)SC2)cc1	-1	-6	-11%	-0.5	14µM*	12%[15.4 µM]	.
O=C(CSc1nnc(C2CCCCC2)n1-c1ccccc1)NCc1ccco1	-5	6	?	0.8	11%	-51%[inhibitor]	-1.6%
O=C1C(=NO)C(c2ccccc2)Oc2ccccc21 (stereo unspecified)	.	1	-8%	.	.	2%	.
O=C(N/N=C/C(Br)=C/c1ccccc1)c1ccncc1	-15	-25	-6%	-0.4	?	4%	-1.1%
COc1cc(NC(=O)COc2ccccc2[N+](=O)[O-])ccc1NC(=O)c1cccs1	4	-6	-5%	-0.3	16µM*	20%[15.4 µM]	.
CN(CC(=O)N1CCCc2c1c(=O)oc1ccc(O)cc21)Cc1ccccc1	6	-35	-7%	3.7	-9%	-5%	-13%
O=C(NCCc1ccncc1)Nc1ccc(Cl)c(Cl)c1	-12	-11	-44%	1.0	14%	3%[15.4 µM]	.
Cc1noc2ncnc(Oc3ccc(F)cc3)c12	1	10	-8%[15.4 µM]	4.3	15%	4%	-1.1%
O=C(CN1CCC(C(=O)c2ccc3c(c2)OCCO3)CC1)Nc1ccccc1F	-13	-5	?	-1.4	-7%	-39%[15.4 µM]	.
O=[N+]([O-])c1ccc(S(=O)(=O)N/N=C/c2ccsc2)cc1	2	-4	-3%	.	4%	5%	-0.6%
CCCCNC(=O)/C(=C\c1ccc([N+](=O)[O-])o1)NC(=O)c1ccccc1	6	0	10%	1.4	19%	13%[15.4 µM]	.
CC(=O)Nc1ccc(C(=O)OCC(=O)NCc2cccs2)cc1	9	-3	7%	.	.	1%	-1.5%
CC(NC(=O)c1cccc(N(C)C)c1)c1ccc(-n2ccnc2)cc1 (stereo unspecified)	-19	-17	3%	.	14%	4%[15.4 µM]	62%
Cc1ccc(O)c(C(=O)c2cnn(C(=O)c3cccc(S(=O)(=O)N(C)C)c3)c2)c1	0	-5	7%	.	.	1%[15.4 µM]	-0.1%
O=C(Nc1cccc(-c2cn3c(n2)SCC3)c1)c1ccc(Br)o1	-2	-4	-14%	0.8	14%	-31%[inhibitor]	1.6%
Cc1cccc(-c2nnc(SCC(=O)c3ccc(O)cc3O)n2C)c1	2	-6	?	3.4	-2%	0%[15.4 µM]	.
CC1CCN(S(=O)(=O)c2cccc3cccnc23)CC1	3	-5	2%	0.9	7%	4%[15.4 µM]	.
CC(C)CCN(C(=O)Cc1ccc(Cl)c(Cl)c1)c1c(N)n(Cc2ccccc2)c(=O)[nH]c1=O	6	-7	-1%	8.9	47%[activator]	0%[15.4 µM]	0.6%
Cc1ccc(Cl)c(OCC(=O)Nc2ccc(S(=O)(=O)NC3=NCCCCC3)cc2)c1	26	-6	-7%	.	.	-22%	-9.2%
Cc1ccc(N2CC(C(=O)N3CCN(c4ccccc4)CC3)CC2=O)cc1 (stereo unspecified)	3	11	-10%	-0.9	8%	-6%	-0.1%
COc1cc2c(cc1NC(=O)c1ccc3c(c1)OCO3)oc1ccccc12	17	0	-10%	-2.0	-11%	-1%	32µM*
Cc1cc(O)cc2c1O[C@@](C)(CCC[C@@H](C)CCC[C@@H](C)CCCC(C)C)CC2	-9	3	0%	.	.	.	-1.4%
CCc1cccc2cc3c(N)c(C(=O)Nc4ccc(S(=O)(=O)N5CCCC5)cc4)sc3nc12	5	-5	-1%	?	0%	-3%[15.4 µM]	-1.6%
O=C(COc1ccccc1)NCCSCc1ccco1	5	-17	-20%	3.0	-5%	0%	-5.1%
CC(CC(=O)Nc1cc(S(=O)(=O)N2CCOCC2)ccc1OCC(F)(F)F)c1ccccc1 (stereo unspecified)	-22	1	7%	.	.	2%	0.6%
CN(C(=O)CSc1nnc(-c2cccs2)n1N)c1ccccc1	.	4	14%	.	.	-3%	-5.8%
CCOc1ccc(CCNC(=O)CN2C(=O)CCSc3ccccc32)cc1	-7	1	-2%	-2.5	15%	-26%	.
Cn1ccc(-c2ccccc2)n1	-7	-32	7%	-3.8	18%	-22%	1.4%
O=C(COC(=O)C12CC3CC(CC(C3)C1)C2)Nc1ccc(OC(F)F)cc1	-15	-10	-10%	-1.7	4%	-17%	0.0%
COc1ccc(OC)c(C2=CC(=O)C[C@H](c3ccc4c(c3)OCO4)C2)c1	-8	1	8%	.	.	12%	-17%

smiles	TRPV1 potentiator	D2 PAM	gsp antagonist	Menin-MLL FL inh	Sfp inh	gsp ag	ClpP mod
COC(=O)c1c(NC(=O)COC(=O)c2ccc(C)s2)sc2c1CCCCC2	1	-8	4%	5.8	-29%	-41%[inhibitor]	-1.6%
CCC(c1nc2ccccc2c(=O)n1-c1cccnc1)N1C(=O)c2ccccc2C1=O (stereo unspecified)	0	-9	4%	-0.1	10%	?	-1.7%
CCC(CC)NC(=O)c1nn(Cc2ccccc2)c(=O)c2ccccc12	-12	6	2%	-1.3	14%	5%	.
O=S(=O)(c1ccc2c(c1)CCCN2)N1CCCC2CCCCC21 (stereo unspecified)	-5	6	-18%	2.9	-10%	22%	.
COc1ccc(-c2ccc(-c3cc(=O)oc4cc(OC)c(OC)c(OC)c34)cc2)cc1OC	.	5	-17%	-1.4	-15%	.	?
Cc1cc(C)c2cccc(NC(=S)NC(=O)c3ccccc3)c2n1	5	-10	-6%	-1.0	-14%	34%	-1.2%
Cc1cc(NC(=O)COc2cccc3cccnc23)no1	5	.	.	-2.0	-26%	.	.
Fc1ccc(-n2c(-c3ccc4ccccc4n3)n[nH]c2=S)cc1	-4	-7	-26%	-3.6	23%	-12%	-3.6%
COc1cc(-c2nnc(COC(=O)c3ccc([N+](=O)[O-])o3)o2)cc(OC)c1OC	.	2	.	.	.	?	60%
Cn1c(=O)[nH]c(=O)c2c1nc(Br)n2CCOc1ccccc1	18	4	5%	-1.3	-7%	?	-3.4%
CCOC(=O)N1CCC(NC(=O)c2cc(-c3ccc(OC)cc3)nc3ccccc23)CC1	3	3	-11%	0.1	-2%	3%	?
CCN1CCN(c2ccc(S(=O)(=O)N3CCOCC3)cc2NC(=O)CCOc2ccccc2)CC1	-15	-27	5%	.	17%	0%	-0.1%
O=C(NCC(c1cccnc1)N1CCN(c2ccccc2)CC1)c1ccc2c(c1)OCO2 (stereo unspecified)	-9	-13	9%	8.1	11%	7%	-2.6%
CSCCC(NC(=O)c1ccccc1)C(=O)NCCCSc1ccccc1 (stereo unspecified)	8	-4	-10%	.	.	15%	1.0%
CC1(C)CC(=O)c2cnc(NCc3ccco3)nc2C1	3	-2	4%	0.3	23%	-1%	-0.8%
CCCCNc1c(-c2ccc(OC)c(SC3CCCCC3)c2)nc2ccc(C)cn12	.	-9	32µM*	.	.	?	?
CCc1cc2c(-c3ccccc3)cc(=O)oc2cc1OC(=O)c1cccs1	10	1	2%	0.3	-16%	-92%[inhibitor]	-7.9%
CC1(C)OC(C)(C)/C(=C\c2ccccc2[N+](=O)[O-])C1=O	-10	-2	4%	0.7	7%	3%	-0.5%
CC(=O)c1ccc(S(=O)(=O)N2CCN(CC(=O)Nc3ccc(Cl)c([N+](=O)[O-])c3)CC2)cc1	1	-2	?	.	.	?	1.2%
CCC(C)c1ccccc1NC(=O)COC(=O)C1=COCCO1 (stereo unspecified)	25	-9	5%	-1.7	0%	?	.
c1ccc(Cc2nnc3sc(-c4ccc5c(c4)OCO5)nn23)cc1	.	-6	11%	.	.	22%	?
Cc1ccc2cc(C#N)c(N3CCCN(S(=O)(=O)c4ccc(F)cc4)CC3)nc2c1	11	-12	-9%	5.0	14%	2%	?
CN(C(=O)CSc1nc(-c2ccccc2)cs1)C1CCS(=O)(=O)C1 (stereo unspecified)	12	-10	-1%	0.0	11%	-8%	1.5%
Cc1cc(SCC(=O)c2ccccc2)nc(=O)[nH]1	0	-13	9%	12	10%	?	-1.6%
Cc1cc(Cl)ccc1OCCCC(=O)N1CCN(S(=O)(=O)c2ccccc2)CC1	-11	22	-8%	.	.	-8%[15.4 µM]	0.7%
COc1ccc(N2CCN(C(=S)Nc3cc(C)ccc3C)CC2)cc1	.	-20	12%	1.8	11%	?	-1.0%
Cc1nc2c3ccccc3[nH]c(=O)n2n1	9	-11	11%	-1.1	-19%	?	?
COc1ccccc1N(CC(=O)NCCSc1ccccn1)S(=O)(=O)c1ccccc1	-5	-4	.	5.3	9%	21%[15.4 µM]	.
COc1ccccc1C1=CC(=O)C[C@H](c2ccc(Cl)cc2)C1	-5	0	-5%	.	.	-47%	-0.5%
COc1ccccc1NC(=O)c1ccc2c(c1)N(CC(=O)NC(C)(C)C)C(=O)C(C)(C)O2	4	0	-5%	4.9	5%	-16%[15.4 µM]	.
O=c1[nH]c(CSc2nnc(Nc3ccccc3)s2)nc2ccccc12	-8	-1	-1%	1.9	2%	-27%	0.7%
CC1CCCCC1NC(=O)CN1CCC(O)(c2ccc3c(c2)OCO3)CC1 (stereo unspecified)	3	-9	4%	-1.3	23%	-6%[15.4 µM]	7.2%

# Some of the entries so far, field by field:
CN(C(=O)CSc1nc(-c2ccccc2)cs1)C1CCS(=O)(=O)C1 (stereo unspecified)
- TRPV1 potentiator: 12
- D2 PAM: -10
- gsp antagonist: -1%
- Menin-MLL FL inh: 0.0
- Sfp inh: 11%
- gsp ag: -8%
- ClpP mod: 1.5%

CC(=O)c1ccc(S(=O)(=O)N2CCN(CC(=O)Nc3ccc(Cl)c([N+](=O)[O-])c3)CC2)cc1
- TRPV1 potentiator: 1
- D2 PAM: -2
- gsp antagonist: ?
- Menin-MLL FL inh: .
- Sfp inh: .
- gsp ag: ?
- ClpP mod: 1.2%

CCC(CC)NC(=O)c1nn(Cc2ccccc2)c(=O)c2ccccc12
- TRPV1 potentiator: -12
- D2 PAM: 6
- gsp antagonist: 2%
- Menin-MLL FL inh: -1.3
- Sfp inh: 14%
- gsp ag: 5%
- ClpP mod: .

Cn1c(=O)[nH]c(=O)c2c1nc(Br)n2CCOc1ccccc1
- TRPV1 potentiator: 18
- D2 PAM: 4
- gsp antagonist: 5%
- Menin-MLL FL inh: -1.3
- Sfp inh: -7%
- gsp ag: ?
- ClpP mod: -3.4%
